Compound activity from PubChem.
SARS PLpro yeast: blocks SARS-CoV papain-like protease in a yeast assay | S. cerevisiae expressing SARS-CoV PLpro, growth rescue; control for the full effect not named in the record | Potency, µM (top dose mostly 32.9 µM), inactives show top-dose activity, positive = growth rescue | 330,000 tested, 0.19% active; active means well fitted rising curve with a large enough effect; inconclusive means small, poorly fitted or top-dose-only effect; inactive means no such curve, though single readings can be large or run the other way; further: 0% is about no effect; nearly all actives have a fitted effect of over 55% in size; growth read by luminescence after 48 h
NS1 function inh: influenza NS1 inhibition; S. cerevisiae slowed by influenza A NS1, growth recovery by OD600; Potency, µM (doses to about 46.1 µM), for the others: at the top dose activity, positive = more growth; 270,000 tested, 0.4% active; active means well fitted rising curve with a large enough effect; inconclusive means small, poorly fitted or top-dose-only effect; inactive means no such curve, though single readings can be large or run the other way; further: nearly all actives have a fitted effect of over 50% in size
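Growth recovery, yeast-based: influenza A NS1 expressed in S. cerevisiae causes slow growth, and suppressors are detected by OD600. The parent strain without NS1 is used as positive control.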
LASV entry inh: Lassa virus entry inhibition. Potency, µM (highest dose often 37.9 µM), for the others: at the top dose activity change, negative = inhibition, hits mostly inhibitors. Lassa virus pseudotype entry inhibition, cell reporter; control for the full effect not named in the record. 300,000 tested, 1.2% active. AID 540256; active means well fitted inhibition curve with a large enough effect; inconclusive means small, poorly fitted or top-dose-only effect, or effect the other way; inactive means flat fitted curve, though single readings scatter; tested in HEK293 cells; further: on the % scale 0 is the no-effect control and ±100 the full control effect; nearly all actives have a fitted effect of over 50% in size; luciferase read-out
Cruzain Triton: cruzain (T. cruzi) inhibition with detergent; Potency, µM, without a hit: max response, negative = inhibition, hits mostly inhibitors; 200,000 tested, 0.43% active; P25779; purified cruzain, Z-FR-AMC fluorescence, 0.01% Triton;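 further: plate controls were neutral wells for no effect and buffer without enzyme for full effect; nearly all actives have a fitted effect of over 40% in size; top concentration of the series not given in the record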
Target sequence (P25779 123-467 limits assumed): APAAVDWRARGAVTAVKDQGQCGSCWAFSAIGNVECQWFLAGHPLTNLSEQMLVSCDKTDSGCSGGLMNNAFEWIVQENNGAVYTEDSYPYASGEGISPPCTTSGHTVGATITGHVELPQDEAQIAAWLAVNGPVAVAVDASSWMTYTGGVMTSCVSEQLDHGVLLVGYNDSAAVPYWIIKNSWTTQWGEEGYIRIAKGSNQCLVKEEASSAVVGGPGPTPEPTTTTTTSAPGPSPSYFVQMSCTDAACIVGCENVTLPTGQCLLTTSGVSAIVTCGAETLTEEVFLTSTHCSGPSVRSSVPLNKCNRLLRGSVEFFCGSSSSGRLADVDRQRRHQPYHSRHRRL
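Enzyme 1.5 nM, Z-FR-AMC 2 uM, NaOAc 100 mM pH 5.5, DTT 5 mM, Triton X-100 0.01%; 15 min RT compound preincubation; kinetic ex360/em450, 60 s delta.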
Cruzain inh noDet: cruzain (T. cruzi) inhibition without detergent | P25779 | purified cruzain, Z-FR-AMC fluorescence, no detergent | Potency, µM, for inactives: max response, negative = inhibition, actives largely listed as inhibitors | 200,000 tested, 2.3% active | AID 1476;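 further: plate controls were enzyme without inhibitor for no effect and buffer without enzyme for full effect; nearly all actives have a fitted effect of over 40% in size; top concentration of the series not given in the record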
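Purified cruzain at 1.5 nM, pre-incubated 15 min with compound at room temperature in 100 mM sodium acetate pH 5.5, 5 mM DTT, 0.00005% Triton X-100. Reaction started with 2 uM Z-FR-AMC; AMC fluorescence increase over 60 s gives rate.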
2A StopGo: FMDV 2A StopGo reporter, luciferase signal; human cells with a luciferase reporter of 2A StopGo recoding; control for the full effect not named in the record; Potency, µM (doses to about 57.9 µM), inactives show top-dose signal change, negative = less light; 410,000 tested, 1.2% active; active = well fitted falling curve with a large enough effect; inconclusive = small, poorly fitted or top-dose-only effect; inactive = no such curve, though single readings can be large or run the other way; tested in HEK293T cells; further: on the % scale 0 is the no-effect control and ±100 the full control effect; nearly all actives have a fitted effect of over 45% in size; luciferase light after 4 h
RE007 growth inh: less growth of the S. pombe RE007 Vpr strain. Potency, µM (doses to about 92.2 µM), without a hit: top-dose activity change, negative = less growth. S. pombe RE007 Vpr strain, BacTiter-Glo ATP luminescence, 24 h; control for the full effect not named in the record. 360,000 tested, 0.21% active. AID 651644; active = well fitted falling curve with a large enough effect; inconclusive = small, poorly fitted or top-dose-only effect; inactive = no such curve, though single readings can be large or run the other way;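 further: on the % scale 0 is the no-effect control and ±100 the full control effect; nearly all actives have a fitted effect of over 50% in size; the assay follows cell death caused by Vpr and the record does not say whether a fall means rescue or toxicity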
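Fission yeast strain RE007, carrying one chromosomally integrated HIV-1 vpr copy, was seeded at OD 0.01 in PMG+AL medium with 23 nL pinned compound. After 24 h at 30 °C and 99% humidity, viability was read by BacTiter-Glo luminescence.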
MARV entry inh: blocks Marburg virus binding to or entry into cells; Marburg virus pseudotyped entry inhibition, cell reporter; control for the full effect not named in the record; about a third of the inactives were read at about 46 µM; Potency, µM (top dose mostly 37.8 µM), for the others: top-dose activity change, negative = inhibition, most hits filed as inhibitors; 300,000 tested, 1.8% active; active = well fitted inhibition curve with a large enough effect; inconclusive = small, poorly fitted or top-dose-only effect, or effect the other way; inactive = flat fitted curve, though single readings scatter; tested in HEK293 cells; about a fifth of its hits are not listed in these tables; further: on the % scale 0 is the no-effect control and ±100 the full control effect; luciferase read-out
* hit, by the source's call; ? = inconclusive; . = no result given; & = joins results of further samples; ! = not confirmed by another sample; [ ] = dose if it differs, or a comment. Unless noted, the call rests on the fitted dose curve; in most records, active means well fitted curve in the direction sought with a large enough effect; inconclusive means small, poorly fitted or top-dose-only effect, or another doubt; inactive means no such curve, though single readings can be large; an effect the other way counts as inactive or inconclusive. Potency means the concentration at half of the fitted maximal effect.

Values run as follows: Cruzain inh noDet | Cruzain Triton | SARS PLpro yeast | RE007 growth inh | 2A StopGo | MARV entry inh | NS1 function inh | LASV entry inh
Cn1c(=O)c(C(=O)c2ccccc2)nc2ccccc21
    -7% | -2.1% | -5% | -7% | 5% | -6% | 3% | 18%
O=C1CCC(C(=O)NCCCn2ccnc2)N1 (configuration not stated)
    11% | 3.2% | 5% | 3% | . | 23% | -1% | 11%
Cc1cc(=O)[nH]c(SCC(=O)N2c3ccccc3CC2C)n1 (configuration not stated)
    -3% | -0.5% | 2% | 5% | -23% | 0% | 3% | 6%
CCOC(=O)c1ccccc1NC(=O)c1cc2c(=O)oc3ccc(C)cc3c2s1
    -2% | 5.9% | . | . | 0% | 0%[46.1 µM] | . | 28%[46.1 µM]
OC(c1nc2ccccc2[nH]1)C(O)c1nc2ccccc2[nH]1 (configuration not stated)
    . | . | 5% | 16% | 24% | 0% | 10% | 1%
O=C1OC(Cc2ccccc2)C(c2ccccc2)C1=O (configuration not stated)
    . | . | . | -1% | -22% | 3% | . | 1%[46.1 µM]
CC1CCCN(Cc2c(O)ccc3c(=O)c(Oc4ccc(C(C)(C)C)cc4)c(C(F)(F)F)oc23)C1 (configuration not stated)
    -13% | -2.8% | . | . | -14% | 9%[46.1 µM] | . | -12%[46.1 µM]
CC1(c2ccccc2)CC(C)(C)N2C(=O)Cc3cccc1c32 (configuration not stated)
    . | . | -3% | -2% | ? | ? | . | ?
CC(C)CNC(=O)COc1ccc(Sc2ccc(OCC(=O)NCC(C)C)cc2)cc1
    -11% | 0.1% | -15% | -3% | ? | 13% | 5% | ?
CCOc1ccc(CCNC(=O)C2CCN(c3nn4c(=O)cc(C)nc4s3)CC2)cc1OCC
    13% | -8.0% | -2% | 1% | -3% | -7%&-7% | 7% | 2%
Cc1ccc(S(=O)(=O)n2nc(-c3ccco3)nc2NCc2ccc(N(C)C)cc2)cc1
    -21% | -2.3% | . | . | 0% | -1%[46.1 µM] | . | 0%[46.1 µM]
CC12CCC(C(=O)O)(C/C1=N\O)C2(C)C (configuration not stated)
    -3%&-5% | -0.7%&4.9% | 11µM*! | 5%&8% | 0%&13% | -3%&0% | 18%&9% | 17%&16%
CC1Oc2ccccc2N(CC(=O)NCCCN2CCOCC2)C1=O (configuration not stated)
    . | . | 2% | -3% | -10% | 12%[46.1 µM] | ? | 2%[46.1 µM]
O=C(CCNC(=O)N1CC(=O)Nc2ccccc21)Nc1ccc(Cl)cc1
    . | . | -2% | 16% | -2% | -12%[46.1 µM] | 1% | -19%[46.1 µM]
CC1(C(=O)Nc2cccc(-n3cnnn3)c2)Cc2ccccc2C(=O)O1 (configuration not stated)
    . | . | -7% | 4% | -13% | 22% | . | 0%
CCC(C)(C)n1nnnc1CN1CCN(C(c2ccccc2)c2ccccc2)CC1
    23% | -2.4% | -18% | -16% | ? | -30% | -50% | 13µM*
C=CCNC(=S)NCc1ccc(CNC(=S)NCC=C)cc1
    . | . | -1% | -2% | -9% | ? | . | -18%
O=C(O)c1ccc2c3c(cccc13)C(=O)N(c1ccccc1)C2=O
    . | . | -2% | -29% | -12% | -2% | 1% | 3%
Cc1ccc2occ(/C=N/NC(=O)c3ccccc3C)c(=O)c2c1
    . | . | -13% | -12% | ? | 25% | -74% | -4%
Cc1cc(OCC(=O)Nc2ccc(OCc3ccccc3)cc2)nc(C(C)C)n1
    -3% | 2.1% | 5% | 8% | -9% | -24% | 5% | -7%
CCOC(=O)C1(C)/C(=N/Nc2cccc(Cl)c2)C(=O)C(=O)N1c1ccccc1 (configuration not stated)
    -1% | -9.9% | 2% | 20% | -3% | -12% | -23% | -14%
Cc1ccc(Nc2c(-c3ccc(N(C)C)cc3)nc3ccccn23)cc1
    -2% | -0.2% | . | . | 23% | ? | . | 10%[46.1 µM]
COc1ccc(CCNC(=O)C(=O)NCC2CCCN2S(=O)(=O)c2ccc(OC)cc2)cc1 (configuration not stated)
    . | . | -2% | 17% | ? | ? | . | ?
O=P(c1ccccc1)(c1ccccc1)c1nc(-c2ccccc2)oc1N1CCOCC1
    . | . | 1% | -7% | 0% | -26% | 2% | -1%
CNC(=O)N(O)C1N(C)C(=O)N(Cc2ccccc2)C1(C)C (configuration not stated)
    -8% | 2.4% | -1% | 10% | -1% | 13% | 6% | 7%
Cc1ccc(-c2nn(-c3ccccc3)cc2/C=C/C(=O)O)o1
    . | . | 1% | -7% | 25% | 0% | 17% | 6%
COc1cccc(NC(=O)Cn2c3ccccc3c3nc4n(c(=O)c32)CCCS4)c1
    . | . | 14% | 2% | -14% | . | 2% | .
Cc1cccc(C(=O)N2CCCC(CCC(=O)N3CCN(c4ccccn4)CC3)C2)c1 (configuration not stated)
    . | . | 3% | -1% | 0% | -17% | -10% | -10%
CCCCn1cnc2c(SCc3ccccc3F)nc(N)nc21
    . | . | . | 18% | 27% | ? | . | -6%
CC(NC(=O)c1cccc(N2CCCC2=O)c1)c1ccc2c(c1)OCCO2 (configuration not stated)
    0% | 0.8% | 11% | 18% | -13% | 13% | -3% | -1%
N#Cc1cccc(NC(=O)COC(=O)c2ccc[n+]([O-])c2)c1
    . | . | -3% | -6% | -6% | -19% | . | ?
Cc1ccccc1CNC(=O)C(=O)NCC(c1cccs1)S(=O)(=O)c1cccs1 (configuration not stated)
    -10% | -2.3% | . | . | 0% | . | . | ?
Cc1cc(C)c(C#N)c(N2CCN(Cc3ccccc3)CC2)n1
    1% | 1.1% | -1% | -6% | -25% | -8% | -3% | -5%
COc1cc2c(cc1OC)C(Cc1ccc(O)cc1)NCC2 (configuration not stated)
    9% | -0.7% | 11% | 2% | -23% | ? | ? | -1%
O=C(COn1nnc2ccc(Cl)cc21)NCc1ccccc1
    0% | -0.7% | -3% | -8% | -10% | ? | -52% | 19%
CCNc1nc(NC(C)CC)nc(Oc2ccc(=O)[nH]n2)n1 (configuration not stated)
    1% | 2.1% | 1% | -10% | . | 1% | 0% | 0%
COc1ccc(Nc2nc3ccccc3n3cnnc23)cc1
    -3% | -4.2% | -6% | 12% | -22% | -1% | -48% | 16%[14.3 µM]
S=C(NC1CCCCC1)N1CCN(c2ccccn2)CC1
    -6% | 0.6% | -3% | -30% | -9% | -16%[46.1 µM] | 2% | 4%
CCOc1cc(/C=C2/NC(=O)NC2=O)cc(Br)c1OCc1ccc(C(=O)O)cc1
    . | . | 2% | -18% | 24% | -3%[46.1 µM] | . | -15%
CCOc1ccc(N/C(SCc2cccc([N+](=O)[O-])c2)=C(/C#N)C(N)=O)cc1
    . | . | -7% | -14% | ? | -1%[46.1 µM] | . | -19%
COc1cc(/C=N/O)c(Br)cc1OCC(=O)Nc1ccccc1C
    -5% | 0.5% | 8% | 1% | 1% | ? | 4% | 19%
N#Cc1ccc(N2CCOCC2)nc1
    . | . | 1% | -5% | 1% | 7% | 2% | .
Cc1ccc(C2=C/C(=C/c3cccnc3)C(=O)O2)c(C)c1
    13% | -6.8% | -84% | -24% | 25% | 12% | -20% | 12%
Cc1ccccc1NC(=O)CCN1C(=O)c2ccccc2Sc2ncccc21
    5% | -0.7% | . | . | 3% | . | . | 2%[46.1 µM]
CCCS(=O)(=O)N1CCCC(C(=O)Oc2ccc(Cl)cc2)C1 (configuration not stated)
    . | . | 4% | 15% | -8% | ? | 2% | 7%
c1ccc2c(Nc3nc(-c4ccncc4)nc4ccccc34)cccc2c1
    . | . | -2% | 0% | 0% | ? | 8% | -5%
CC1=C(C(=O)OCc2ccccc2)C(c2ccccc2Cl)NC(=O)N1CCCC(=O)O (configuration not stated)
    . | . | 8% | 46% | -18% | . | -2% | .
CC1(C)NC(=O)N(CCOCCOc2ccc3ccccc3c2Br)C1=O
    ? | -4.5% | 9% | -12% | 24% | 20% | -5% | 20%
Cc1nc(C(F)(F)F)nc(Nc2ccc(Br)cc2)c1C#N
    -15% | 3.0% | 2% | 9% | -18% | ? | 10% | -2%
Cc1ccsc1C(=O)OCc1nnc(-c2ccccc2)o1
    . | . | -7% | -24% | 42%[activator] | 1% | . | ?
COc1ccc(N2C(=O)c3ccccc3NC23CCC(C)CC3)cc1 (configuration not stated)
    -11% | 0.9% | 7% | 9% | 62%[activator] | 4% | 5% | 9%
CCCC(=O)Nc1ccc2nc(SCC(=O)Nc3nccs3)sc2c1
    1% | 4.2% | 0% | 2% | 1% | -1% | 3% | 6%
CCSC1=C(C#N)C(c2ccc(F)cc2)CC(=O)N1 (configuration not stated)
    -22% | -2.9% | -18% | 8% | ? | . | 0% | .
Oc1cc(Cl)ccc1Oc1ccc(Cl)cc1Cl
    3% | -1.5% | . | ? | ? | . | . | .
COc1ccc(NC(=O)COC(=O)c2cc(OC)c(OC)cc2NC(=O)c2ccco2)cc1OC
    ? | 0.5% | 3% | -4% | -8% | -5% | 1% | -15%
NC1=NC(c2cccc(Cl)c2)N(CCc2ccc(F)cc2)C(N)=N1 (configuration not stated)
    . | . | 5% | -3% | -13% | ? | 3% | 5%[46.1 µM]
O=C(O)/C=C/C(=O)N1CCN(C(c2ccccc2)c2ccccc2)CC1
    . | . | 0% | 0% | -12% | . | 5% | .
NS(=O)(=O)c1cccc(NC(=O)CSc2nn(-c3ccccc3)c(=S)s2)c1
    -3% | -16% | -2% | -3% | ? | ? | -1% | ?
O=C(CCc1nnc2ccc(NCc3ccccc3)nn12)NCC1CCN(C2CCCC2)C1 (configuration not stated)
    . | . | 10% | -8% | -11% | . | -1% | .
